CDC25B-CDK2 inh = human CDC25B-CDK2/CyclinA binding inhibition; P30305+P24941; HTRF CDC25B-CDK2/CyclinA binding, anti-His/anti-Flag; active compounds read high; z-score (test concentration not listed); actives 0.72% (n = 94,000); AID 1259370;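 note: score is relative to mean and SD of negative controls; strong numbers were not always called active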
HIV TAR-Tat = HIV-1 TAR-Tat binding disruption. HIV-1 TAR RNA, Tat peptide displacement FRET; active compounds read high. actives 0.6% (n = 100,000). AID 1259389. z-score (concentration not given with the values);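 note: score is relative to mean and SD of negative controls; some compounds called inactive have numbers as strong as hits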
Active calls of the source: *; · = no result given.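 Rule for the calls: active = z-score from 3 up in half or more of its runs; inactive = the rest.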

SMILES	CDC25B-CDK2 inh	HIV TAR-Tat
COC(=O)CSc1nnc(-c2ccc(C)cc2)o1	-2.7	-1
O=C(CCc1ccc(-c2ccc(Cl)cc2)o1)Nc1nccs1	-0.22	-1.3
CCOC(=O)C1CCN(C(=O)Cn2cc3c(n2)-c2c(oc(C(=O)N4CCCC4)c2C)CC3)CC1	·	1.3
CC1=C(C(=O)Nc2ccccc2)C(c2cccs2)C(C#N)=C(SCc2ccccc2)N1 (configuration not stated)	-0.61	·
COc1cc(CCC(C)N)ccc1O (configuration not stated)	-0.72	·
CCOCCCNC(=O)C1CCN(C(=O)N(C)C)CC1	·	0.55
Cc1nc2nc(COc3ccccc3)[nH]n2c(=O)c1C	-0.31	1.7
O=C(Cn1ncc2ccsc2c1=O)N1CCCC1	-1.3	0.91
Fc1ccc(Nc2nc3ccccc3c3nncn23)cc1	-2.8	2.3
CCc1cccc(C)c1-n1nnnc1C(C)(C)N(C)C	·	-0.21
CC(=O)N1c2ccc(S(=O)(=O)N3CCOCC3)cc2CC1C(=O)NCCN(C)C1CCCCC1 (configuration not stated)	·	0.86
CCn1c(Br)nc2c1c(=O)n(C)c(=O)n2C	-0.24	·
COc1ccc(-c2noc(N3CCOCC3)n2)cc1	·	-0.06
Cc1ccc(C)c(NS(=O)(=O)c2cc3c4c(c2)CC(=O)N4CCC3)c1	·	2
O=C(NCCn1cnc2cc(C(=O)NC3CCCC3)ccc21)Nc1ccc(F)c(Cl)c1	·	0.99
O=C(C1COc2cc(S(=O)(=O)NCc3cccs3)ccc2O1)N1CCOCC1 (configuration not stated)	·	0.44
Cc1cc(CNS(=O)(=O)c2ccc3c(c2)oc(=O)n3C)c(C)n1-c1ccc(Cl)cc1	·	0.39
CC(C)CCNC(=O)c1cc2c(s1)-c1ccccc1OC2	-1.1	-1.9
COc1ccc(C2CC(=O)C3=C(C2)OC(N)=C(C#N)C3c2cccc(Br)c2)cc1 (configuration not stated)	-2	·
CC1=C(C(=O)N2CCN(c3cccc(Cl)c3)CC2)C2(CCCCC2)OC1=O	·	0
CNC(=O)C1CCN(S(=O)(=O)c2c(C)noc2/C=C/c2cccs2)CC1	·	1.2
CCCCN1CC(c2nc3ccccc3n2CCOc2ccccc2)CC1=O (configuration not stated)	0.94	1.2
O=C(Nc1ccc2nc3n(c(=O)c2c1)CCCCC3)C(=O)NC1CC1	-0.84	2.3
COc1cccc(N2CC(O)=C(c3nc4ccccc4n3C)C2=N)c1	-1.3	1.9
CC1(C)CC2(CC(C)(c3csc(Nc4ccccc4)n3)OC2=O)C(=O)O1 (configuration not stated)	-1.3	1.6
COc1cccc(C(=O)O)c1OCC(=O)O	0.03	·
COc1ccc(C2C3=C(CCCC3=O)N=C3c4ccccc4C(=O)C32)cc1 (configuration not stated)	-2.4	-0.33
Nc1nc2[nH]c(=S)[nH]c2c(=O)[nH]1	-1.5	·
O=C(COc1ccccc1Cl)Nc1nc(-c2cccs2)ns1	1.5	0.35
CC#CCOC(=O)c1c(C)nc2sc3c(c2c1N)CCC(O)C3 (configuration not stated)	-1.3	·
CSc1cccc(NC(=O)Nc2cn(C)c(=O)c3ccccc23)c1	·	0.52
O=[N+]([O-])c1ccc(-c2cc3cc(Cl)ccc3o2)cc1	1.4	·
O=C(Cn1c(=O)c2ccccc2n2c(=S)sc(-c3ccc(F)cc3)c12)NCC1CCCO1 (configuration not stated)	-2.1	-8.2
COc1ccc(S(=O)(=O)NCc2nc3nc(C)cc(C)n3n2)cc1	-0.06	3.1
O=S(=O)(c1ccc2c(c1)CCO2)N1CCCc2ccccc21	-0.54	·
CCOc1c(Br)cc(Br)cc1/C=C1/SC(=S)NC1=O	-1.4	·
O=C(Nc1ccc2c(c1)OCCO2)c1nc(-c2ccncc2)no1	·	1.7
Cn1nccc1NC(=O)CC(CC(=O)O)c1ccccc1 (configuration not stated)	-0.85	·
Cc1ccc(C(=O)CC2(O)C(=O)N(CCc3ccccc3)c3ccccc32)cc1 (configuration not stated)	-0.32	-1.7
Cc1nc(-c2ccc(S(=O)(=O)N3CCN(c4ccc(Cl)cc4)CC3)cc2)co1	·	1.3
COc1ccc2[nH]c3c(N(C)C)ncnc3c2c1	-4.1	·
Cn1c(SCc2ccccc2F)nc(=O)c2c1NC(=O)CC2c1ccc(F)cc1F (configuration not stated)	-0.46	1.2
CN(C)C1CCCC1C(C)(C)OC(=O)c1ccc([N+](=O)[O-])cc1[N+](=O)[O-] (configuration not stated)	-1.6	·
Fc1ccc(-c2csc3ncnc(N4CCOCC4)c23)cc1	·	0.69
CSc1nc(C)cc(Nc2ccc(N3CCOCC3)cc2)n1	0.05	1.5
CC(C(=O)c1ccccc1)C1(O)C(=O)Nc2ccc(Cl)cc21 (configuration not stated)	1.4	·
Cc1cc(C)c2[nH]c(=O)c(NC(N)=O)nc2c1	-1.2	1.6
O=C(CC1CCCCC1)Nc1ccc2nc3n(c(=O)c2c1)CCCCC3	-1.2	-0.85
CSc1ccccc1NC(=O)c1noc(C)c1[N+](=O)[O-]	-1.7	-0.74
O=c1c2cccnc2n(Cc2ccc(F)cc2)c(=O)n1Cc1ccc(Cl)cc1	-2.6	-0.63
COc1cc(Br)cc2c1Oc1nc(-c3ccccc3F)[nH]c(=O)c1C2	-1.6	1.1
COCCc1nn2c(=O)cc(COC(=O)c3ccccc3Br)nc2s1	·	0.83
COc1cc(OC)cc(-c2nc(-c3ccc4c(c3)[nH]c(=O)n4C)no2)c1	·	0.91
O=C(O)c1ccc(S(=O)(=O)Nc2cccnc2)cc1	0.43	0.17
CN1CCN(C2CCN(C(=O)NC3CCCCC3)CC2)C(=O)C1=O	·	1.2
CCOC(=O)c1n[nH]c2c1CCCC2	·	3.9
Cc1cc(C2CCCN2S(C)(=O)=O)on1 (configuration not stated)	·	1.6
O=C(NCCN1CCCC1)C1CCN(c2nnc(N3CCCCC3=O)s2)CC1	·	1.5
Cc1c(C(=O)Nc2ccc(S(=O)(=O)Nc3ncccn3)cc2)oc2ccccc12	-1.1	·
CC1(C)CC(=O)C2=C(C1)Nc1c(ccc3ccccc13)C2c1ccc2c(c1)OCO2 (configuration not stated)	-0.46	2.1

A draw from above in order of number of heavy atoms, lowest first.
SMILES	CDC25B-CDK2 inh	HIV TAR-Tat
CCOC(=O)c1n[nH]c2c1CCCC2	·	3.9
Cc1cc(C2CCCN2S(C)(=O)=O)on1 (configuration not stated)	·	1.6
CCn1c(Br)nc2c1c(=O)n(C)c(=O)n2C	-0.24	·
COC(=O)CSc1nnc(-c2ccc(C)cc2)o1	-2.7	-1
O=[N+]([O-])c1ccc(-c2cc3cc(Cl)ccc3o2)cc1	1.4	·
CSc1ccccc1NC(=O)c1noc(C)c1[N+](=O)[O-]	-1.7	-0.74
Cn1nccc1NC(=O)CC(CC(=O)O)c1ccccc1 (configuration not stated)	-0.85	·
O=C(CCc1ccc(-c2ccc(Cl)cc2)o1)Nc1nccs1	-0.22	-1.3
O=C(Nc1ccc2c(c1)OCCO2)c1nc(-c2ccncc2)no1	·	1.7
CC1(C)CC2(CC(C)(c3csc(Nc4ccccc4)n3)OC2=O)C(=O)O1 (configuration not stated)	-1.3	1.6
CC1=C(C(=O)N2CCN(c3cccc(Cl)c3)CC2)C2(CCCCC2)OC1=O	·	0
Cc1ccc(C(=O)CC2(O)C(=O)N(CCc3ccccc3)c3ccccc32)cc1 (configuration not stated)	-0.32	-1.7
Cn1c(SCc2ccccc2F)nc(=O)c2c1NC(=O)CC2c1ccc(F)cc1F (configuration not stated)	-0.46	1.2
CC(=O)N1c2ccc(S(=O)(=O)N3CCOCC3)cc2CC1C(=O)NCCN(C)C1CCCCC1 (configuration not stated)	·	0.86

The listing picks up, starting two compounds before the break.
SMILES	CDC25B-CDK2 inh	HIV TAR-Tat
Cc1c(C(=O)Nc2ccc(S(=O)(=O)Nc3ncccn3)cc2)oc2ccccc12	-1.1	·
CC1(C)CC(=O)C2=C(C1)Nc1c(ccc3ccccc13)C2c1ccc2c(c1)OCO2 (configuration not stated)	-0.46	2.1
C/C(=N\OCc1cccc(C(=O)N=S(C)(=O)c2ccccc2)c1)c1ccc(Cl)cc1 (configuration not stated)	-0.92	·
COc1ccc(C2=NOC(C(=O)N3CCOCC3)C2)cc1OC (configuration not stated)	-0.23	0.5
CCOc1ccc(-c2c(C)nn3c2NCN(Cc2ccc(C)cc2)C3)cc1OCC	-2.7	-0.03
Cc1cccc(-n2cc(-c3ccccc3)c3c(NCCCO)ncnc32)c1	-0.67	·
CCOC(=O)c1c(C)[nH]c(C)c1S(=O)(=O)N(C)CC(=O)N1CCc2ccccc21	·	2.1
O=S(=O)(Nc1ccc(-c2cc3cc(Cl)ccc3[nH]2)cc1)c1cnc[nH]1	·	-2.8
C=CCN(CC=C)CC(O)Cn1c(C)c(C)c2ccccc21 (configuration not stated)	-0.92	1.7
CCCC(C)C1C(C#N)=C(N)OC2=C1C(=O)CC(C)(C)C2 (configuration not stated)	-1.6	·
CCN1CCN(c2nnc(-n3cccc3CNc3ccccc3F)s2)CC1	·	2.7
O=c1nc(SCc2ccccc2F)c2c(n1C1CCCCC1)CCC2	-2.3	1.2
CC(=O)Nc1ccc(NC(=S)NC(=O)c2ccc(C(C)(C)C)cc2)cc1	·	-0.83
Cc1nn(CC(=O)NCCCN2CC(C)CC(C)C2)c(=O)c2cccn12 (configuration not stated)	-2.1	1.3
CCOC(=O)c1c(N)sc(C(=O)Nc2ccc3c(c2)OCO3)c1C	0.74	·
CC(NC(=O)Cc1ccc(NC2=NC3CS(=O)(=O)CC3S2)cc1)c1ccccc1 (configuration not stated)	-1.8	0.04
Cc1nn(C(C)C(=O)NCc2cccc(Br)c2)c(=O)c2cc3occc3n12 (configuration not stated)	-1.3	-0.41
COC(=O)C(NC(=O)CCc1c(C)nc2nc(C)nn2c1C)C(C)C (configuration not stated)	-0.22	1.4
Nc1cc(-c2cccc(Cl)c2)[nH]n1	0.17	0.35
Cc1cc(NC(=O)Cn2ncc3c([nH]c4ccccc43)c2=O)no1	·	-1
Cc1cc(C)cc(OC(=O)c2cc(-c3ccc4c(c3)OCCO4)on2)c1	-0.82	-0.31
c1ccc2c(c1)Oc1ccccc1C2n1nnc2ccccc21	-1.9	·
O=C1C(=O)N(Cc2cccnc2)C(c2ccccc2)/C1=C(\O)c1ccccc1 (configuration not stated)	0.16	·
CCOC(=O)c1ccccc1NC(=O)CN(c1cc(OC)ccc1OC)S(C)(=O)=O	-0.58	·
COC(=O)c1sc2ccccc2c1S(=O)(=O)Nc1ccc(Br)cc1	·	-0.24
Cc1cc(C)cc(N2C(=O)CN(Cc3ccccc3)C2=S)c1	-0.39	·
Cn1c(SCc2nccn2Cc2ccc(Cl)cc2)nnc1C(F)(F)F	-0.21	·
Clc1ccc(-c2ccc(CNCc3ccncc3)o2)cc1	·	1.4
c1ccc(Nc2nc(-c3cccs3)cs2)cc1	-2.6	-12
CCN1CCCC1CNC(=O)C1CCN(c2ccc(-c3cccs3)nn2)CC1 (configuration not stated)	·	0.55
CCSCCOC(=O)C1=C(C)NC2=C(C(=O)CCC2)C1c1ccc(N(CC)CC)cc1 (configuration not stated)	-1.7	·
COc1ccc(-c2nc3c4cnn(-c5ccc(C)cc5)c4ncn3n2)cc1	0.71	0.67
O=c1oc(-c2ccccc2F)nc2scc(-c3ccccc3)c12	-5.5	·
COc1ccc(NC(=O)N2CCSc3ncccc32)cc1OC	·	1.1
CCc1cccc(C)c1Nc1nc(C)nc2c1CCC2	-1.5	-0.57
Cc1onc(-c2ccccc2)c1C(=O)Oc1ccccc1N1CCOCC1	0.64	·
NC(=O)c1cc(S(=O)(=O)NCc2ccc3c(c2)OCO3)cs1	·	0.58
COc1ncnc2c1sc1nc(C)c3c(c12)CC(C)(C)OC3	-2.5	-1.8
COc1cc(OC)c(NS(=O)(=O)c2c(C)nc3sc(C)c(C)n3c2=O)cc1Cl	·	0.38
CCOc1ccc(N2CSC3=C(C#N)C(c4cccs4)CC(=O)N3C2)cc1 (configuration not stated)	4*	-1.7
O=C(Nc1ccc(Cl)cc1Cl)C1CCc2ccccc2O1 (configuration not stated)	-1.5	·
CCSc1ccc(-c2cccs2)nn1	·	2.2
COc1cc(OC)c(NC(c2ccc(F)cc2)c2nnc(-c3ccccc3)o2)cc1Cl (configuration not stated)	-0.03	0.31
COc1ccc(OC)c(CNc2nc(NCCO)nc3c2cnn3C)c1	·	1.2
Cc1nn(-c2ccc(N3CCCCC3)nn2)c(C)c1CCC(=O)N1CCOCC1	·	-0.92
COc1ccc(N2CCN(C(=O)C3CCN(c4ncnc5c4nc4n5CCCCC4)CC3)CC2)cc1	·	0.48
COc1ccc(-c2cc(-c3nnc(N)o3)no2)cc1OC	-1.3	2
Cc1ccc(C)c(N2CCN(S(=O)(=O)c3ccc(-c4ccc(=O)[nH]n4)o3)CC2)c1	·	1.4
CCOC(=O)c1ccc(Oc2nc(CC)nc3c2oc2ccccc23)cc1	·	0.57
Cc1nc(SCc2ccccc2)c(C#N)c(C)c1C	-0.8	1
Cc1ccc(NS(=O)(=O)c2cc3c4c(c2)C(C)C(=O)N4CCC3)cc1C (configuration not stated)	·	1.9
CN1CCC(N(CCN2CCOCC2)C(=O)Cn2c(=O)oc3ccccc32)CC1	·	0.52
CCOC(=O)CCC(=O)c1c(C(=O)OCC)[nH]c2ccc(Cl)cc12	-1.2	0.59
O=S(=O)(Nc1cccc(-c2ccc(N3CCCC3)nn2)c1)c1cccs1	·	1.8
CN(C)CCN(C(=O)CCS(=O)(=O)c1ccccc1)c1nc2c(F)cc(F)cc2s1	·	2.8
O=C(Nc1nccs1)c1cc2ccccn2n1	·	0.5
N#Cc1nc(/C=C/c2ccccc2Cl)oc1N1CCN(C(=O)c2cccc(F)c2)CC1	-1.7	-0.91
Cc1nc(-c2cnccn2)sc1C(=O)N(Cc1ccccc1)Cc1cccs1	0.15	·
Cc1ccc(C)c(CN2C(=O)N(c3ccccc3)C3CS(=O)(=O)CC32)c1 (configuration not stated)	·	0.45
COc1ccccc1CC1C(=O)Nc2ccccc21 (configuration not stated)	-1.2	-0.08
